SARS PLpro yeast = inhibitors of SARS-CoV papain-like protease in yeast | 0.19% of 330,000 active | S. cerevisiae expressing SARS-CoV PLpro, growth rescue; control for the full effect not named in the record | Potency, µM (top dose mostly 32.9 µM), for inactives: at the top dose activity, positive = growth rescue | AID 485353; active means well fitted rising curve with a large enough effect; inconclusive means small, poorly fitted or top-dose-only effect; inactive means no such curve, though single readings can be large or run the other way; further: 0% is about no effect; nearly all actives have a fitted effect of over 55% in size; growth read by luminescence after 48 h
RE007 growth inh = less growth of the S. pombe RE007 Vpr strain; S. pombe RE007 Vpr strain, BacTiter-Glo ATP luminescence, 24 h; control for the full effect not named in the record; Potency, µM (doses to about 92.2 µM), inactives show top-dose activity change, negative = less growth; 0.21% of 360,000 active; AID 651644; active = well fitted falling curve with a large enough effect; inconclusive = small, poorly fitted or top-dose-only effect; inactive = no such curve, though single readings can be large or run the other way;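 further: on the % scale 0 is the no-effect control and ±100 the full control effect; nearly all actives have a fitted effect of over 50% in size; the assay follows cell death caused by Vpr and the record does not say whether a fall means rescue or toxicity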
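Fission yeast RE007 carrying one integrated HIV-1 vpr copy, seeded at OD 0.01 in PMG+AL medium with 23 nL pinned compound. Grown 24 h at 30 degrees; viability read by BacTiter-Glo luminescence after 5 min.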
2A StopGo = lowers the luciferase signal of an FMDV 2A StopGo reporter. AID 1159524. Potency, µM (doses to about 57.9 µM), without a hit: at the top dose signal change, negative = less light. 1.2% of 410,000 active. human cells with a luciferase reporter of 2A StopGo recoding; control for the full effect not named in the record; active = well fitted falling curve with a large enough effect; inconclusive = small, poorly fitted or top-dose-only effect; inactive = no such curve, though single readings can be large or run the other way; tested in HEK293T cells; further: on the % scale 0 is the no-effect control and ±100 the full control effect; nearly all actives have a fitted effect of over 45% in size; luciferase light after 4 h
Active calls of the source: *; ? = inconclusive; [ ] = remark or other dose. Potency means the concentration at half of the fitted maximal effect. This is a subset; the hit share may differ from the screen's.

SMILES	SARS PLpro yeast	RE007 growth inh	2A StopGo
C[C@H](CO)N1C[C@H](C)[C@@H](CN(C)C(=O)Nc2ccc(C(F)(F)F)cc2)Oc2c(NS(=O)(=O)c3cn(C)cn3)cccc2C1=O	5%	21%	40%[activator]
COc1cc(S(=O)(=O)N2CCOCC2)cc(C(=O)OCC(=O)NC2CCCCC2)c1OC	9%	9%	4%
COC(=O)C1=C(c2ccc(F)cc2OCc2ccccc2)C[C@@H]2CC[C@H]1N2C(=O)NCCOc1ccc(OC)cc1	1%	-20%	-29%
CCN1C[C@@H]2[C@@H]3C(=O)N(C)C(=O)[C@@H]3[C@](Cc3ccccc3)(C(=O)OC)N2C1=NC1CCCCC1	-11%	-4%	4%
COC(=O)C1=C(c2cccc(C#N)c2)C[C@@H]2CC[C@H]1N2C(=O)NC1CCCCC1	3%	-1%	-1%
COc1ccc(C(=O)NC(CC(C)C)C(=O)O)cc1 (stereo not drawn)	-1%	1%	-17%
O=C(Nc1ccc2c(c1)OCCO2)c1cnn(-c2ccccc2)n1	1%	?	21%
CCOc1cc(N2CCOCC2)c(OCC)cc1NC(=O)C1=NN(c2cccc(C)c2)C(=O)CC1	-2%	-3%	-24%
O=C(NN=Cc1ccccc1Cl)c1ccc(-n2cnnn2)cc1	5%	-4%	-6%
COC(=O)Cc1csc(NC(=O)c2ccc3ncsc3c2)n1	-3%	-7%	9%
N#CCCC(CCC#N)(CCC#N)c1cc[n+](CCc2ccccn2)cc1	5%	-9%	8%
N#CCCN1CCN(S(=O)(=O)c2ccc3c(c2)CCC3)CC1	-3%	-8%	-3%
COc1ccccc1-c1nnc(SCC(=O)c2c(N)n(C3CC3)c(=O)[nH]c2=O)o1	-2%	1%	-13%
CC(C)Cn1c(SCC(=O)N2CCOCC2)nc2ccccc2c1=O	-2%	-6%	-18%
COc1ccc(OC)c(NC(=O)COc2ccc3c(c2)CCC3)c1	-1%	-3%	-9%
COCCn1c(Cc2ccccc2)nnc1SCC(=O)N1CCCC1=O	4%	12%	-4%
CN(C(=O)c1ccc(NC(=O)Cc2cccc(NC(=O)C3CCN(C(=O)c4ccccc4)CC3)c2)cc1)C1CCCC1	-2%	-13%	-9%
Cc1ccc(S(=O)(=O)Nc2ccccc2F)cc1C(=O)N1CCN(c2ccccc2O)CC1	7%	-7%	1%
CCCCCCSc1ccc(-c2nc3ccc(Cl)cn3c2NC2CCCCC2)cc1	-1%	-3%	-22%
CCCCC1CCC(C(=O)Nc2ccc(N3CCOCC3)cc2N2CCOCC2)CC1 (stereo not drawn)	3%	2%	-20%
C[C@H](CO)N1C[C@H](C)[C@@H](CN(C)S(=O)(=O)c2cccs2)Oc2c(NS(=O)(=O)c3cn(C)cn3)cccc2C1=O	-34%	15%	-6%
Cc1ccc(NC(=O)Cc2nc(COC(=O)C(C)NS(=O)(=O)c3ccc(C)cc3)cs2)cc1 (stereo not drawn)	0%	-12%	32%[activator]
C[C@H](CO)N1C[C@H](C)[C@@H](CN(C)S(=O)(=O)c2ccc(F)cc2)Oc2ccc(NC(=O)c3ccncc3)cc2C1=O	7%	23%	-7%
CC(C)c1ccc(NC(=O)COC(=O)C2CC3C=CC2C3)cc1 (stereo not drawn)	-7%	-14%	5%
O=C1C=CN2CCCC2CC1 (stereo not drawn)	0%	8%	?
C[C@@H]1CN([C@@H](C)CO)C(=O)c2cc(NS(=O)(=O)c3cccs3)ccc2O[C@H]1CN(C)Cc1ccc(C(F)(F)F)cc1	3%	-18%	?
O=C(N/N=C/c1cc([N+](=O)[O-])cc([N+](=O)[O-])c1O)C(O)(c1ccccc1)c1ccccc1	4%	-3%	-15%
CC(NC(=O)CNC(=O)c1ccccc1F)c1ccc(-n2ccnc2)cc1 (stereo not drawn)	-4%	11%	-19%
O=C1N[C@@H](Cc2ccccc2)C(=O)N2[C@H]1C[C@]1(Br)c3ccccc3N(S(=O)(=O)c3ccccc3)[C@H]21	-8%	-11%	-25%
COc1cc2c(cc1OC)C(=O)N1[C@H]3c4cc(C)ccc4OC[C@@H]3[C@H](c3ccccc3)[C@]1(C)C(=O)N2	2%	-11%	?

Of the compounds above, 3 contain a cyano group.
SMILES	SARS PLpro yeast	RE007 growth inh	2A StopGo
COC(=O)C1=C(c2cccc(C#N)c2)C[C@@H]2CC[C@H]1N2C(=O)NC1CCCCC1	3%	-1%	-1%
N#CCCC(CCC#N)(CCC#N)c1cc[n+](CCc2ccccn2)cc1	5%	-9%	8%
N#CCCN1CCN(S(=O)(=O)c2ccc3c(c2)CCC3)CC1	-3%	-8%	-3%

(further entries)
SMILES	SARS PLpro yeast	RE007 growth inh	2A StopGo
Cc1ccc(CNC(=O)c2cc(C3CC3)nc3c2cnn3C(C)C)cc1	-5%	-1%	-15%
COc1ccccc1CCNC(=O)CSc1nnc2ccc(-c3ccncc3)nn12	-2%	18%	-6%
COc1ccc2c(c1)CC[C@@H]1[C@@H]2CC[C@]2(C)[C@@H](C(C)=O)C[C@@H]12	-8%	-5%	8%
CC1(c2nnc(Cc3ccccc3)o2)CC(c2ccccc2Br)=NO1 (stereo not drawn)	1%	-4%	4%
COC(=O)[C@]1(C)N[C@H](CN(C)C(C)=O)[C@@H]2C(=O)N(Cc3ccccc3)C(=O)[C@@H]21	3%	30%	-15%
CC(=O)NCc1ccc(C(=O)COC(=O)COc2ccccc2)s1	1%	7%	-9%
COc1cccc(-c2nn(-c3ccc(C)cc3)cc2C(=O)N2CCN(C3CCS(=O)(=O)C3)CC2)c1 (stereo not drawn)	4%	-22%	-1%
COc1ccc(NC(=O)COC(=O)C23CC4CC(CC(Cl)(C4)C2)C3)c(OC)c1	1%	-8%	5%
CC(C)C[C@H](NC(=O)c1nc[nH]c1C(=O)NC1CCNCC1)C(=O)OCc1ccccc1	1%	-12%	2%
COc1ccc(CN2CC(=O)N3[C@H]4c5ccccc5OC[C@@H]4[C@H](c4ccccc4)[C@]3(C)C2=O)cc1	0%	-13%	?
CCOC(=O)[C@H]1[C@H]2COc3ccc(C)cc3[C@@H]2N2C(=O)[C@@H](C)NC(=O)[C@@]12C	-2%	-18%	1%
COc1ccc(NC(C)=O)cc1NC(=O)c1cccc(S(=O)(=O)N2CCc3ccccc32)c1	-2%	-12%	-24%
O=c1[nH]nc(CNc2ccc(C(F)(F)F)cc2)c2ccccc12	?	8%	-11%
COC(=O)c1nccc2c1[nH]c1ccccc12	2%	-8%	-6%
COc1cc(CC(=O)OCC(=O)NCCc2ccc(S(N)(=O)=O)cc2)cc(OC)c1OC	8%	6%	-5%

Record cards, from the list above:
COc1ccc(NC(C)=O)cc1NC(=O)c1cccc(S(=O)(=O)N2CCc3ccccc32)c1 reads SARS PLpro yeast = -2%; RE007 growth inh = -12%; 2A StopGo = -24%
CC(=O)NCc1ccc(C(=O)COC(=O)COc2ccccc2)s1 reads SARS PLpro yeast = 1%; RE007 growth inh = 7%; 2A StopGo = -9%

More entries
SMILES	SARS PLpro yeast	RE007 growth inh	2A StopGo
Cc1ccc(NC(=O)CCC(=O)N2CCN(S(=O)(=O)c3ccc(C)cc3)CC2)cc1	-8%	-5%	-24%
CCCCc1nnc(NC(=O)CCS(=O)(=O)c2ccc(C)cc2)s1	-2%	22%	0%
COc1ccc(C(=O)OCC(=O)Nc2ccc(N3CCOCC3)cc2)cc1	2%	6%	-6%
N#C/C(=C(/O)CCCl)c1ccccn1	2%	-12%	-2%
COc1ccc(NC(=O)COC(=O)C2CC(=O)N(CCc3ccc(OC)c(OC)c3)C2)cc1Cl (stereo not drawn)	-5%	-6%	0%
O=C(C[C@H]1C/C=C\C[C@@H](Cc2ccc(F)cc2)C(=O)O[C@@H](c2ccccc2)CNC1=O)N[C@@H](CO)Cc1ccccc1	-6%	-6%	-20%
O=C(COC(=O)Cc1ccsc1)Nc1cccc(F)c1	4%	-20%	-18%
CC(C)NS(=O)(=O)c1ccc(NC(=O)C(C)OC(=O)C2CCC2)cc1 (stereo not drawn)	-5%	-12%	-12%
CCOc1ccc2oc(C(=O)OCC(=O)NC3CCCC3)c(C)c2c1	0%	-5%	-16%
O=c1[nH]c(=O)n(-c2ccccc2)c(O)c1N=Nc1ccc(Br)cc1	2%	13%	10%
NNC(=O)Cn1c(-c2nonc2N)nc2ccccc21	-3%	0%	10%
CS(=O)(=O)c1ccc(-c2sc3ccccc3c2C(=O)NCCCN2CCOCC2)cc1	-6%	5%	-21%
COc1ccc(C(=O)NC(=O)COC(=O)c2ccc(C)o2)cc1	-8%	-22%	-13%
N#Cc1ccccc1OCc1cccc(S(=O)(=O)N2CCOCC2)c1	14%	-14%	-7%
O=C(N/N=C/c1ccc(F)c(F)c1)c1cccc(S(=O)(=O)N2CCCCC2)c1	1%	14%	-24%
COc1ccc(N2CCN(C(=O)COC(=O)COc3cccc(C(F)(F)F)c3)CC2)cc1	2%	1%	-17%
COc1ccc(NC(=O)N(C)C[C@H]2Oc3ccc(NS(=O)(=O)c4c(C)noc4C)cc3C(=O)N([C@H](C)CO)C[C@@H]2C)cc1	-1%	29%	-10%
C=CCN(CC=C)S(=O)(=O)c1ccc(C(=O)Nc2nnc(COC)o2)cc1	3%	21%	-14%
COC(=O)C1=C(c2ccc(OC)c(OC)c2)C[C@@H]2CC[C@H]1N2C(=O)NCCCOC(C)C	1%	-6%	-9%
CC(C)c1ccc(CNC(=O)CCc2ccccc2)cc1	-3%	17%	4%
COC(=O)C1=C(c2ccc(OC(F)(F)F)cc2)C[C@@H]2CC[C@H]1N2C(=O)NC1CC1	0%	28%	-25%
CN(C(=O)c1ccc(F)c(S(=O)(=O)N2CCOCC2)c1)C1CCCCC1	-4%	4%	0%
CCOc1ccc2nc(N3C(=O)C(O)=C(C(=O)c4ccco4)C3c3ccco3)sc2c1 (stereo not drawn)	-1%	-7%	4%
COc1ccccc1-c1nnc(SCC(=O)Nc2cccnc2Cl)n1C	-6%	11%	-9%
COc1cc(OC)cc(C(=O)N=c2sc3ccccc3n2C)c1	-2%	-1%	58%[activator]
C#CCOCCOCCOCCNc1nc(N2CCN(C(=O)CCCCCCCCCCNC(=O)[C@H](CO)n3cc(CCCSC)nn3)CC2)nc(N2CCN(C(=O)CCCCCCCCCCNC(=O)[C@H](CO)n3cc(CCCSC)nn3)CC2)n1	-2%	-4%	-10%
O=C(OCCOc1cccc(Cl)c1)c1ccc(F)c(S(=O)(=O)N2CCOCC2)c1	-10%	-1%	-26%
C=CCn1c2[n+](c3ccccc3c1=O)CCCCC2	0%	-1%	6%
S=C(NCCc1ccccn1)Nc1ccccc1	-5%	-7%	82%[activator]
CSc1ncccc1C(=O)NCC1CCCCC1	-3%	6%	4%
Fc1ccc2cc(-c3ccccc3F)ncc2c1	0%	-14%	56%[activator]
CCOC(=O)[C@H]1[C@H]2COc3ccccc3[C@@H]2N2C(=O)c3cc(F)ccc3NC(=O)[C@@]12C	-1%	1%	-24%
O=C(Cc1cccs1)Nc1nnc(-c2ccccc2)s1	0%	6%	72%[activator]
Cc1ccc(CN2C(=O)C[C@@H](NC(=O)OCC3c4ccccc4-c4ccccc43)C/C=C\C2c2ccc(C)cc2)cc1 (stereo partly drawn)	3%	-4%	-31%
COc1cccc(Nc2nc(Nc3ccc(Cl)c(C(=O)O)c3)nc(C)c2[N+](=O)[O-])c1	-5%	-10%	-24%
CCN(C[C@H]1N[C@@](Cc2ccccc2)(C(=O)OC)[C@H]2C(=O)N(Cc3ccccc3)C(=O)[C@@H]12)C(C)=O	-2%	-13%	-3%
CC(C)N(C(=O)CSc1ccc(S(=O)(=O)N2CCCCC2)cn1)C(C)C	10%	10%	?
COc1ccc(CCNCC(O)Cn2c3ccccc3c3ccccc32)cc1OC (stereo not drawn)	-2%	-9%	-22%
CC(C)Oc1ccc(S(=O)(=O)N2CCCCC2)cc1NC(=O)C1CCCC1	1%	7%	1%
Cc1ccc(-c2cc(-c3ccc(C)cc3)[n+](-c3ccc(C(=O)O)cc3)c(-c3ccc(C)cc3)c2)cc1	4%	12%	-7%
CCN1C(=O)[C@H]2[C@H]3CN=C(SC)N3[C@@](CC)(C(=O)OC)[C@H]2C1=O	15%	10%	-10%
Cc1ccc(S(=O)(=O)Nc2cccc3c2O[C@H](CN(C)C(=O)Nc2ccc(C(F)(F)F)cc2)[C@@H](C)CN([C@H](C)CO)C3=O)cc1	-7%	-9%	39%[activator]
CCN1C(=O)[C@H]2[C@@H](c3ccc(-c4ccc(OC)cc4)cc3)N3CCCC[C@@]3(C(=O)OC)[C@H]2C1=O	-5%	-5%	-9%
CC(=O)c1c(C)nc(-c2ccc(OCC(=O)Nc3ccc(F)cc3)cc2)n1O	1%	17%	-14%
Cc1ccc(NC(=O)CSc2nnc(CNC(=O)c3cccs3)o2)c(C)c1	4%	11%	-13%

Screens: PubChem BioAssay, National Center for Advancing Translational Sciences (NCATS)
